High-throughput results as filed in PubChem BioAssay.
VDR inhibitor: blocks the human vitamin D receptor. P11473. VDR-SRC2-3 peptide fluorescence polarization, 2 h. Potency, µM, for the others: max response, negative = inhibition, hits mostly inhibitors. 0.93% of 400,000 active; active = well fitted inhibition curve with a large enough effect; inconclusive = small, poorly fitted or top-dose-only effect, or another doubt; inactive = no such curve, though single readings can be large or run the other way; note: series mostly up to about 120 µM
Target sequence (P11473 whole entry, looked up): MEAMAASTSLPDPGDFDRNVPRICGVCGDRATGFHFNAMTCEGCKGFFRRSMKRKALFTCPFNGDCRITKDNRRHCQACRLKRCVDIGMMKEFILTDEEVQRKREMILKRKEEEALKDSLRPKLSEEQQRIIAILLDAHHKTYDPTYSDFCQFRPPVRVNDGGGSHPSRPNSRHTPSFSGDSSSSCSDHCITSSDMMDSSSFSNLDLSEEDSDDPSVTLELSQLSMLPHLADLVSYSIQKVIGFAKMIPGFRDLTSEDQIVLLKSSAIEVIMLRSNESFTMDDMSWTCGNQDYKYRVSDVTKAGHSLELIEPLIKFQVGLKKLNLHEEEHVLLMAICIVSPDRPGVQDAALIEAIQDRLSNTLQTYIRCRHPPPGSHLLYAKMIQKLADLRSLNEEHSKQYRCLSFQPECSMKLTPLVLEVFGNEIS
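The screen uses fluorescence polarization to detect compounds that interfere with recruitment of the SRC2-3 coactivator peptide to VDR; plates are read after 2 h at room temperature.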
An asterisk follows results filed as active; ? = inconclusive; & = joins results of further samples. % is set by controls: 0 for no effect and ±100 for the full control effect; potency is the fitted concentration of half-maximal effect. A portion of the library (hit frequency here may not be typical).

Sample of the layout:
SMILES | VDR inhibitor
CC(OC(=O)Cc1c[nH]c2ccccc12)C(=O)NC1(C#N)CCCCC1 (configuration not stated) | -3.1%
Cc1ccc2c(c1)N(CCC(=O)NCc1cccnc1)C(=O)CO2 | -2.7%
CC(=O)CCn1cc([N+](=O)[O-])nc1C | 6.4%
O=C(Nc1cccc(Br)c1)c1ccc(CN2CCc3ccccc3C2)cc1 | -14.9%
Cc1nn2cnnc2c(C)c1Cc1c(F)cccc1Cl | -27.3%
O=C(NCc1ccncc1)C(=O)C1C(=O)Nc2ccccc21 (configuration not stated) | -7.4%

Main list, repeating the preview:
SMILES | VDR inhibitor
CC(OC(=O)Cc1c[nH]c2ccccc12)C(=O)NC1(C#N)CCCCC1 (configuration not stated) | -3.1%
Cc1ccc2c(c1)N(CCC(=O)NCc1cccnc1)C(=O)CO2 | -2.7%
CC(=O)CCn1cc([N+](=O)[O-])nc1C | 6.4%
O=C(Nc1cccc(Br)c1)c1ccc(CN2CCc3ccccc3C2)cc1 | -14.9%
Cc1nn2cnnc2c(C)c1Cc1c(F)cccc1Cl | -27.3%
O=C(NCc1ccncc1)C(=O)C1C(=O)Nc2ccccc21 (configuration not stated) | -7.4%
CCN1CCC(NCCc2ccc(F)cc2)CC1 | -9.7%
CCOc1cc(C)c(S(=O)(=O)N2CCCC2)cc1C | 0.1%
CN(C)c1ccc(/C=C(\NC(=O)c2ccccc2)C(=O)NCc2ccncc2)cc1 | -9.7%
CC(NC1CCCC1)c1ccccc1 (configuration not stated) | 7.5%
O=C(COc1cc(F)ccc1[N+](=O)[O-])NCCCc1ccccc1 | 12.5%
O=C(Nc1cccc([N+](=O)[O-])c1)NC1CCS(=O)(=O)C1 (configuration not stated) | 11.7%
O=C(CCN1C(=O)/C(=C/c2ccc3c(c2)OCO3)SC1=S)Nc1cccc(C(=O)O)c1 | -16.8%
O=S(=O)(NC(=NC1CCCC1)C(F)(F)F)c1ccccc1 | -0.9%
O=C(CSc1ncc2c(n1)-c1cc(Cl)ccc1N(Cc1ccccc1)S2(=O)=O)NCc1ccccc1 | 3.7%
Cc1ccc(Cl)cc1N1CCN(c2cccc[n+]2C)CC1 | -0.2%
CN(CC(=O)Nc1ccccc1Cl)C(=O)COC(=O)c1ccc(Cl)cc1[N+](=O)[O-] | -6.0%
CCOc1ccc(NC(=O)CN2CCN(Cc3c(F)cccc3F)CC2)cc1 | -15.5%
COc1ccc2c(c1)CCC1C2CC[C@@]2(C)C1CC[C@@H]2NCCCCCCN1C(=O)CCC1=O (some centres not stated) | 5.4%
COc1ccc(OC)c(C2C(C(N)=O)=C(C)Nc3nc(CCCO)nn32)c1 (configuration not stated) | -5.8%
COc1ncc2nc(C)c(=O)n(C[C@H]3CCCO3)c2n1 | -6.0%
C[C@]12c3[nH]c4ccccc4c3CCN1C(=O)C(CC(=O)NCc1cccc(C(F)(F)F)c1)C[C@@H]2C(=O)N1CCOCC1 (some centres not stated) | ?
O=C(CN1CCC(n2nnc3cc(F)ccc32)CC1)N1CCc2ccccc2C1 | 14.8%
CC1C(=O)N2CCCc3cc(NC(=O)C(=O)NCCc4c[nH]c5ccccc45)cc1c32 (configuration not stated) | -11.7%
Cc1ccc(NC(=O)Cn2nnc(C(=O)NCc3cccs3)c2N)cc1Cl | -6.8%&18.5%

3 records drawn at random from those above:
SMILES | VDR inhibitor
CC(=O)CCn1cc([N+](=O)[O-])nc1C | 6.4%
CC1C(=O)N2CCCc3cc(NC(=O)C(=O)NCCc4c[nH]c5ccccc45)cc1c32 (configuration not stated) | -11.7%
O=C(CCN1C(=O)/C(=C/c2ccc3c(c2)OCO3)SC1=S)Nc1cccc(C(=O)O)c1 | -16.8%

Later entries:
SMILES | VDR inhibitor
O=C(CCN1CCN(c2ccccc2)CC1)NNC(=O)Cc1c(F)cccc1Cl | 13.1%
Cc1ccc(CSc2ncnc3c2cnn3-c2ccccc2)cc1 | -15.2%
COc1ccccc1NC(=O)CSc1nnc(Cn2cnc3ccccc32)n1C | -15.4%
O=C(O)c1ccc2noc(-c3ccccc3)c2c1 | 1.9%
CCOC(=O)N1CCN(CCC(=O)Nc2cccc(C)c2)CC1 | -8.8%
Cc1ccc2c(O)c(Cc3ccccc3)c(=O)[nH]c2n1 | 6.2%
Cc1c(C)n(Cc2ccccc2)c2ncnc(NCCO)c12 | -3.0%
CCOC(=O)c1c(C)[nH]c(C(=O)NNC(=O)c2ccccc2F)c1C | -18.2%
COC(=O)NNS(=O)(=O)c1ccc(C)cc1 | 4.2%
Cc1cc(C(=O)Nc2c(F)cc(F)cc2Br)no1 | 6.2%
CCSc1ncc(Cl)c(C(=O)N(Cc2ccccc2)Cc2ccco2)n1 | 6.4%
COc1ccc(C2/C=C\CN(S(=O)(=O)c3ccc(C)cc3)C(C)C(=O)N2Cc2ccc(F)cc2)cc1 (configuration not stated) | -12.4%
Cc1cc(C)cc(NC(=O)Cn2c(=O)n(CC(=O)NCCc3ccccc3)c(=O)c3ccccc32)c1 | -5.2%
CC(C)C[C@H]1CN([C@@H](Cc2ccc(O)cc2)CN2CCC[C@@H]2CN2C(=O)C(=O)NC[C@@H]2Cc2ccccc2)C(=O)C(=O)N1CC1CCCCCC1 | -13.9%
S=c1nc(-c2ccccc2)n(CCCn2ccnc2)c2c1CCCC2 | -13.8%
O=C(CN1C(=O)NC2(CCCCCCC2)C1=O)NCc1ccccc1 | -0.8%
O=C(c1ccc([N+](=O)[O-])cc1)N1CCSC1c1cccc(Cl)c1 (configuration not stated) | 6.2%
O=S(=O)(NCc1ccco1)N1CCOCC1 | -6.7%
COc1ccc(OC)c(-n2nnc(-c3nc(-c4cc(OC)c(OC)c(OC)c4)no3)c2C)c1 | 4.1%
CCC12CN3CC(CC)(CN(C1)C3c1c(O)ccc3ccccc13)C2=O (configuration not stated) | -15.6%
COc1ccc(/C=C/C(=O)NC(=S)NNC(=O)c2cccnc2)cc1 | 1.9%
Cc1nc(NC(=O)C23CC4CC(CC(C4)C2)C3)sc1Cc1ccc2c(c1)OCO2 | -3.0%
Cc1ccccc1-c1nc(C#N)c(N2CCCCC2)o1 | -17.2%
COc1ccccc1C(=O)NNC(=O)c1ccncc1 | 2.8%
CCOc1ccc(-n2nc3ccc(NC(=O)Cc4ccccc4)cc3n2)cc1 | 21.8%

Some values from the list.
COc1ccc(OC)c(-n2nnc(-c3nc(-c4cc(OC)c(OC)c(OC)c4)no3)c2C)c1 in VDR inhibitor is entered as 4.1%
COc1ccc(/C=C/C(=O)NC(=S)NNC(=O)c2cccnc2)cc1 in VDR inhibitor is entered as 1.9%
Cc1cc(C)cc(NC(=O)Cn2c(=O)n(CC(=O)NCCc3ccccc3)c(=O)c3ccccc32)c1 in VDR inhibitor is entered as -5.2%
CCOC(=O)N1CCN(CCC(=O)Nc2cccc(C)c2)CC1 in VDR inhibitor is entered as -8.8%
Cc1nc(NC(=O)C23CC4CC(CC(C4)C2)C3)sc1Cc1ccc2c(c1)OCO2 in VDR inhibitor is entered as -3.0%

Additional entries
SMILES | VDR inhibitor
Cc1cc(C)cc(-n2c(C)c3c(C)nnc(C)c3c2C)c1 | 14.4%
CC1CN(C(=O)CCCN2C(=O)c3ccccc3C2=O)CC(C)O1 (configuration not stated) | -5.6%
CCc1nc(Nc2ccc(F)cc2)c2oc3ccccc3c2n1 | 13.7%
CCC(=O)OCC(=O)[C@@]1(OC(=O)CC)[C@@H](C)C[C@H]2[C@@H]3CCC4=CC(=O)C=C[C@]4(C)[C@@]3(Cl)[C@@H](O)C[C@@]21C | -8.0%
COCCN1Cc2cccc(C(=O)Nc3c(C)cccc3C)c2C1=O | -12.2%
Cc1ccc(S(=O)(=O)N2CCCOC2CNC(=O)C(=O)NC2CCCC2)cc1 (configuration not stated) | 5.1%
C=C1c2cc(C)ccc2NC(=O)N1c1ccccc1 | 7.6%
COc1ccc(S(=O)(=O)Oc2cccc(/C=N/N=C3/NC(=O)C(CC(=O)O)S3)c2)cc1 (configuration not stated) | 6.0%
Cc1cccc(NCC(=O)N/N=C\c2c[nH]c3ccccc23)c1 | 7.6%
Cc1ccc(NC(=O)CCC(=O)NNC(=O)c2ccco2)cc1C | 12.5%
CN(Cc1ccccc1)S(=O)(=O)c1ccc2[nH]c(=O)ccc2c1 | 1.1%
COC(=O)c1cccc(NC(=O)c2ccc(OC)c(Cl)c2)c1 | 10.2%
Cc1[nH]c(=O)[nH]c(=S)c1C(=O)Nc1ccc(Cl)c(Cl)c1 | 4.9%
COc1cccc(C(=O)NC2CCN(C(=O)N3c4ccccc4Sc4ccccc43)CC2)c1 | 17.3%
O=C(O)c1ccc(/C=N/N2CCN(Cc3ccc(Cl)cc3)CC2)cc1 | -12.4%
O=S(=O)(Nc1ccc(F)cc1)c1ccc(NS(=O)(=O)c2cccs2)cc1 | 1.7%
CCN(CC)C(=O)C1CCCN(c2ncnc3c2c(-c2ccccc2)cn3-c2cccc(C)c2)C1 (configuration not stated) | 9.7%
CC(C)(C)NC(=O)CCSc1nnc(-c2ccco2)o1 | 13.2%
CCOc1ccc(CCNC(=O)c2ccc(Nc3nc4ccccc4n4nnnc34)cc2)cc1OCC | -8.9%
Cc1ccc(S(=O)(=O)N2CCCCC2)cc1NC(=O)C1CC(=O)N(Cc2ccco2)C1 (configuration not stated) | -3.0%
Cc1[nH]c2ccccc2c1[C@H]1[C@@H](CC#N)C1(C)C | -7.3%
O=[N+]([O-])c1ccc(Oc2ccc(Oc3ccc(C(F)(F)F)cn3)cc2)nc1 | -26.6%
COc1ccc(C2CC(=O)c3c([nH]c(C(=O)OCCOc4ccccc4)c3C)C2)cc1OC (configuration not stated) | ?
CCCOc1ccccc1C(=O)Nc1ccc(S(=O)(=O)N2CCN(C)CC2)cc1 | -3.0%
N#Cc1cc2c(nc1SCC(=O)N1CCCCC1)CCCCC2 | ?

Exported with the structure last: part of the list above.
VDR inhibitor	Molecule
-14.9%	O=C(Nc1cccc(Br)c1)c1ccc(CN2CCc3ccccc3C2)cc1
-27.3%	Cc1nn2cnnc2c(C)c1Cc1c(F)cccc1Cl
-7.4%	O=C(NCc1ccncc1)C(=O)C1C(=O)Nc2ccccc21 (configuration not stated)

Remaining list, next part:
SMILES | VDR inhibitor
Cc1ccc(NCC(=O)N2CCN(S(=O)(=O)c3ccccc3)CC2)cc1F | -8.1%
COc1ccc(NC(=O)c2ccc(S(=O)(=O)N(C)c3ccccc3)cc2)cn1 | 7.7%
CCCCC(=O)NC(=S)Nc1ccccc1N1CCCCC1 | 10.2%
O=C1OC(COc2ccc(Br)cc2)CN1c1ccccc1 (configuration not stated) | -18.2%
O=C(C(=NNc1ccccc1)c1ccccc1)c1ccccc1 | 11.7%
CCOc1c(C)cnc2c1c(=O)n(CC(=O)NCC1CCCO1)c(=O)n2C (configuration not stated) | -5.9%
CC(=O)c1cccc(N=Nc2c(C)[nH]c3ccccc23)c1 | 10.2%
CCOc1ccc(N=C(NC#N)SCC(=O)NC2CC2)cc1 | -12.4%
Cc1cccc(Cn2c(=O)n(CCCC(=O)NCc3ccccc3Cl)c(=O)c3ccccc32)c1 | ?
Nc1nc(Nc2cccc(Cl)c2)nc(NCCO)c1[N+](=O)[O-] | 13.1%
O=c1c2ccccc2[nH]c(=S)n1CCN1CCc2ccccc2C1 | -0.6%
CC(=O)Nc1sc(N/N=C/c2ccc(C)cc2)nc1-c1ccc(C)cc1 | ?
O=C(NC1CCN(S(=O)(=O)c2cccc(F)c2)CC1)c1ccc(F)cc1 | -12.9%
COc1ccc(N2C(=O)Cc3ccccc3C2=O)cc1 | -21.3%
O=C(NCc1nnc(SCC(=O)N2CCOCC2)o1)c1c(F)cccc1Cl | -20.6%
CCCN1CCN(CCCNC(=O)Cn2cc3c(n2)CCCC3)CC1 | -28.8%
COCCn1c(SC(C)C(=O)Nc2ncc(Cl)cc2Cl)nc2ccccc21 (configuration not stated) | -2.6%
CC(C)Oc1ccc(C(=O)NC(C)(C)CO)cc1 | -15.3%
CCn1c(=O)c2ccccc2n2c(SCC(=O)NCc3cccs3)nnc12 | -19.8%
CCOC(=O)c1nn(-c2ccc([N+](=O)[O-])cc2)cc1O | -6.5%
CCN1CCCc2cc(CN(CCN3CCOCC3)C(=S)Nc3cccc(C)c3)ccc21 | 9.3%
CCc1ccc(NC(=O)CSc2nnnn2-c2cccnc2)cc1 | 3.0%
COC(=O)/C=C/c1ccccc1CN1[C@@H](CC(=O)OC)c2ccccc2S1(=O)=O | -3.6%
Clc1ccc(-c2csc(=Nc3ccccc3)n2Cc2ccc3c(c2)OCO3)cc1 | 1.8%
N#Cc1nc(-c2ccco2)oc1NCc1ccc(F)cc1 | -0.1%

More entries follow.
SMILES | VDR inhibitor
CC1=NN(c2ccccc2)C(c2ccco2)C1 (configuration not stated) | 21.6%
O=c1[nH]snc1-c1c(Cl)cccc1Cl | -2.1%
COc1ccc(S(=O)(=O)N2CCCCC2)cc1NC(=O)Cn1cnc2c1c(=O)n(C)c(=O)n2C | -17.4%
Cc1ccnc(SCC(=O)N2CCc3ccccc32)n1 | -10.9%
O=C(Nc1ccc2oc(-c3cccc(F)c3)nc2c1)c1ccc2ccccc2c1 | 6.2%
O=C(NCCn1cccn1)C1CCC(=O)N(CC2CCCCC2)C1 (configuration not stated) | -8.3%
CCOC(=O)N1CCC(Nc2c(-c3ccc(C)c(C)c3)c(=O)c2=O)CC1 | -8.7%
Cc1ccc2[nH]c(=O)c(CN(Cc3ccco3)C(=O)CN3CCCC(C)C3)cc2c1 (configuration not stated) | 1.3%
O=C(O)c1ccc(-n2nc(C(F)(F)F)c3c2-c2ccoc2CC3)cc1 | ?
O=C1Nc2ccccc2SC1c1ccccc1 (configuration not stated) | ?
O=C(CNC(=O)c1ccccc1Cl)N/N=C/c1ccc([N+](=O)[O-])s1 | -5.9%
